TRPML1 blocker = blocks the human TRPML1 channel; activity change, negative = inhibition, % (no concentration beside the values); 390,000 compounds, 0.02% hits; AID 624415; TRPML1-inducible cells, Ca2+ dye fluorescence, FDSS; hits give low values; inhibition of EC80 agonist-evoked calcium signal; Q9GZU1; in the data active means activity change below about -50%; inconclusive means about -30% to -50%; inactive means above about -30%;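 further: stimulus is agonist 54-4 at its EC80 concentration; on the % scale 0 is the no-effect control and ±100 the full control effect; compound concentration not given in the record; the text of the record puts the active cut at -80%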
Target sequence (Q9GZU1 whole entry, looked up): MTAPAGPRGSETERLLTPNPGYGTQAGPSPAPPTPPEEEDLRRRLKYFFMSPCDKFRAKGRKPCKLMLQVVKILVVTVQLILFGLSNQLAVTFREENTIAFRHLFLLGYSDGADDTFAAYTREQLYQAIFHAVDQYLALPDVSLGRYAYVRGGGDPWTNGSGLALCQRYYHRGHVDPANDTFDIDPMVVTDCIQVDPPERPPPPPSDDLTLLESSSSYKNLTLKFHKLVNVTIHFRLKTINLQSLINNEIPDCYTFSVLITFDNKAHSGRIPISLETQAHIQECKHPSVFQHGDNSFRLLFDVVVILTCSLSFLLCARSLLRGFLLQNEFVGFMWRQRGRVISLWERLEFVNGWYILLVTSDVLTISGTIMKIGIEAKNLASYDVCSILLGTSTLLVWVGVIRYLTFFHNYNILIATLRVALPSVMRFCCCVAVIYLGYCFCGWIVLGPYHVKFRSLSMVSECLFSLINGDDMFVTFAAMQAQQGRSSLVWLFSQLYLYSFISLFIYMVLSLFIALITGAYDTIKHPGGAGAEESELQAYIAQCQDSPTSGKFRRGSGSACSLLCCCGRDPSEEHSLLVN
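TRPML1-DL cells, Tet-induced overnight (~16 h, 37 °C) at 1,500 cells/well, were loaded with Ca8 no-wash dye plus quencher for 45-90 min at room temperature. Compounds were pinned during FDSS kinetic reading; agonist 54-4 at EC80 (4 uM final) then added.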
TRPML1 ag = agonists of human TRPML1 channel | TRPML1-expressing cells, Ca2+ dye fluorescence, FDSS; host cell line not named in the record; reference of the full effect not given here | 410,000 compounds, 0.12% hits | activation, % (test concentration not listed); in the data active = activation above about 50%; inconclusive = about 30% to 50%; inactive = below about 30%; further: 0% is about no effect; the text of the record puts the active cut at 80%
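In this qHTS format, compounds were pin-transferred onto Ca8-dye-loaded TRPML1-DL cells induced with Tet overnight, and intracellular Ca2+ fluorescence was recorded kinetically for 110 s after a 10 s baseline. A subsequent 4uM final 54-4 (EC80) addition followed by a second 110 s read served as the antagonist phase.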
D2 ag = activates the human D2 dopamine receptor. activation, % (test concentration not listed). 360,000 compounds, 0.084% hits. P14416. AID 624465. DiscoveRx PathHunter D2 beta-arrestin, luminescence, 90 min; 100% = 57 uM dopamine signal; in the data active = activation above about 40%; inconclusive = about 15% to 40%; inactive = below about 15%; further: compound concentration not given in the record; the text of the record calls up to 30% inactive
Target sequence (P14416 whole entry, looked up): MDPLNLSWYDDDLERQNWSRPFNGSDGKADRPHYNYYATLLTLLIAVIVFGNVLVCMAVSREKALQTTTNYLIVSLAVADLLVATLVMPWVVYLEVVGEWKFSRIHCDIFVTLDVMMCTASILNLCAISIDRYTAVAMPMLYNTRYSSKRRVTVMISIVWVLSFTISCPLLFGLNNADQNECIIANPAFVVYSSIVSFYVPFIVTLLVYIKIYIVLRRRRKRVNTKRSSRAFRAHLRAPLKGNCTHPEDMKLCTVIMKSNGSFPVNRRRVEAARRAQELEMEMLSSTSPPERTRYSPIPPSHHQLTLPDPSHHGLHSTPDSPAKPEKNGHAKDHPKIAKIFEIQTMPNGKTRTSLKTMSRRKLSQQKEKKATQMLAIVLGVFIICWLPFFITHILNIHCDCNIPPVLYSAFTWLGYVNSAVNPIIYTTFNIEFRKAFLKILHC
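DiscoveRx PathHunter D2 beta-arrestin cells (2,100/well) attached overnight, then compound-stimulated 90 min at 37 C in HBSS/10 mM HEPES/0.1% Tween-20 buffer; beta-galactosidase complementation read by luminescence after 1 h at ambient temperature. Dopamine 57 uM final (EC100) as control.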
CtBP-E1A inh = CtBP/E1A binding inhibition. AlphaScreen GST-E1A/His-CtBP binding, 1536-well; hits give low values; control for the full effect not named in the record. activity change, % (test concentration not listed). 340,000 compounds, 0.49% hits. AID 651724; in the data active means activity change below about -65%; inconclusive means about -30% to -65%; inactive means above about -30%; further: on the % scale 0 is the no-effect control and ±100 the full control effect
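Steps: dispense buffer (Tris pH 8.0, NaCl 300 mM, TCEP 1 mM, BSA, Tween 20); add 5X protein mix (GST-E1A, His-CtBP, 125 nM each); pin 23 nL compound; 2 h at 37 °C, dark; add 5X beads (50 ug/mL); 1 h; read.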
Six1-Eya2 blk = Six1/Eya2 interaction inhibition; Q15475+O00167; AlphaScreen GST-Six1/His-Eya2 binding, biochemical; hits give low values; control for the full effect not named in the record; activity change, % (test concentration not listed); 360,000 compounds, 0.56% hits; AID 651725; in the data active = activity change below about -65%; inconclusive = about -30% to -65%; inactive = above about -30%; further: on the % scale 0 is the no-effect control and ±100 the full control effect
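Homogeneous AlphaScreen proximity assay pairing GST-Six1 with His-tagged Eya2 (added as 5X mix: 250 nM and 500 nM) in 50 mM Tris pH 8.0, 300 mM NaCl, 1 mM TCEP. Glutathione donor and nickel acceptor beads; 1 h, 37 °C, dark.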
PINK1 modulator = changes PINK1 expression; PINK1 immunofluorescence, high-content cytometry, 24 h; Potency, µM (highest dose often 76.6 µM), without a hit: at the top dose activation (PINK1 increase), most hits filed as activators; 410,000 compounds, 0.2% hits; AID 624263; active = well fitted activation curve with a large enough effect; inconclusive = small, poorly fitted or top-dose-only effect; inactive = flat fitted curve, though single readings scatter; cell line not stated here;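 further: potency means the concentration at half of the fitted maximal effect; % of control where 0% means no effect; nearly all actives have a fitted effect of over 65% in size; a mitochondrial uncoupler was the plate control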
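Stable cell line, 250 cells/well, 12 h attachment; compounds pinned at 5 concentrations, 24 h; CCCP control. Fixed with nuclear dye, primary antibodies 12 h at 10 degrees C, secondary plus cell stain; laser-scanning cytometer read.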
* marks the source's active call; other numbers are inactive results; ? = inconclusive; nt = no result given; [ ] = remark or other dose.

The opening 10 records, to show the layout:
Codes – A = TRPML1 blocker; B = TRPML1 ag; C = D2 ag; D = CtBP-E1A inh; E = Six1-Eya2 blk; F = PINK1 modulator
> COc1ccc(C2N3CC4(C)CN2CC(C)(C3)C4=O)cc1OC (stereo not given)
  A: -6 | B: 0.5 | C: -2.0 | D: 4 | E: 4 | F: -0.4%

> COc1cccc(NC(=O)[C@H](C)NC(=O)C2CCN(S(=O)(=O)c3ccc(C)cc3)CC2)c1
  A: -9 | B: -0.3 | C: 1.5 | D: 5 | E: -3 | F: 2.2%

> COc1ccc(CCNC(=O)C2CCN(C(=O)NC3CCCCC3)CC2)cc1
  A: -6 | B: -0.5 | C: -3.7 | D: 5 | E: -1 | F: 0.7%

> Cc1nn(-c2ccccc2)c(C)c1-c1nnc(C(F)(F)F)o1
  A: 24 | B: -0.8 | C: -3.4 | D: nt | E: 4 | F: 1.6%

> Cc1cc(S(=O)(=O)NC2CCCCC2)ccc1-n1cnnn1
  A: 7 | B: -0.3 | C: 0.2 | D: -2 | E: 0 | F: 1.9%

> O=C(COC(=O)Cc1cccc(C(F)(F)F)c1)NC(=O)NC1CCCC1
  A: 13 | B: 2.3 | C: 0.9 | D: -4 | E: 9 | F: 4.1%

> COc1ccc(NC(=O)[C@H](C)NC(=O)[C@@H]2Cc3ccccc3CN2C(=O)OC(C)(C)C)cc1
  A: -4 | B: -0.7 | C: 2.2 | D: nt | E: 2 | F: 0.8%

> Cc1ccc2nc(SCC(=O)N(CC(C)C)c3c(N)n(Cc4ccccc4)c(=O)[nH]c3=O)[nH]c2c1
  A: -2 | B: 1.9 | C: -0.5 | D: 7 | E: 4 | F: 1.0%

> CNC(=S)/N=C/NOCc1ccc(Cl)cc1Cl
  A: -3 | B: 2.7 | C: -3.5 | D: -8 | E: -1 | F: ?

> COc1ccc(CCNC(=O)c2ccccc2OCc2ccccc2)cc1
  A: 43 | B: 2.1 | C: -4.8 | D: 10 | E: 7 | F: 0.9%

The listing, repeating the preview:
Codes – A = TRPML1 blocker; B = TRPML1 ag; C = D2 ag; D = CtBP-E1A inh; E = Six1-Eya2 blk; F = PINK1 modulator
> COc1ccc(C2N3CC4(C)CN2CC(C)(C3)C4=O)cc1OC (stereo not given)
  A: -6 | B: 0.5 | C: -2.0 | D: 4 | E: 4 | F: -0.4%

> COc1cccc(NC(=O)[C@H](C)NC(=O)C2CCN(S(=O)(=O)c3ccc(C)cc3)CC2)c1
  A: -9 | B: -0.3 | C: 1.5 | D: 5 | E: -3 | F: 2.2%

> COc1ccc(CCNC(=O)C2CCN(C(=O)NC3CCCCC3)CC2)cc1
  A: -6 | B: -0.5 | C: -3.7 | D: 5 | E: -1 | F: 0.7%

> Cc1nn(-c2ccccc2)c(C)c1-c1nnc(C(F)(F)F)o1
  A: 24 | B: -0.8 | C: -3.4 | D: nt | E: 4 | F: 1.6%

> Cc1cc(S(=O)(=O)NC2CCCCC2)ccc1-n1cnnn1
  A: 7 | B: -0.3 | C: 0.2 | D: -2 | E: 0 | F: 1.9%

> O=C(COC(=O)Cc1cccc(C(F)(F)F)c1)NC(=O)NC1CCCC1
  A: 13 | B: 2.3 | C: 0.9 | D: -4 | E: 9 | F: 4.1%

> COc1ccc(NC(=O)[C@H](C)NC(=O)[C@@H]2Cc3ccccc3CN2C(=O)OC(C)(C)C)cc1
  A: -4 | B: -0.7 | C: 2.2 | D: nt | E: 2 | F: 0.8%

> Cc1ccc2nc(SCC(=O)N(CC(C)C)c3c(N)n(Cc4ccccc4)c(=O)[nH]c3=O)[nH]c2c1
  A: -2 | B: 1.9 | C: -0.5 | D: 7 | E: 4 | F: 1.0%

> CNC(=S)/N=C/NOCc1ccc(Cl)cc1Cl
  A: -3 | B: 2.7 | C: -3.5 | D: -8 | E: -1 | F: ?

> COc1ccc(CCNC(=O)c2ccccc2OCc2ccccc2)cc1
  A: 43 | B: 2.1 | C: -4.8 | D: 10 | E: 7 | F: 0.9%

> Cc1nnsc1-c1nnc(SCC(=O)c2ccc(C#N)cc2)n1C1CC1
  A: 12 | B: -0.8 | C: -4.0 | D: nt | E: 0 | F: 0.1%

> O=C(CSc1nc(-c2ccccc2)nc2c1CCCC2)N1CCOCC1
  A: 9 | B: -0.6 | C: 1.1 | D: 0 | E: 2 | F: -0.7%

> COc1ccc(CCNC(=O)c2cc(C3CC3)on2)cc1OC
  A: nt | B: nt | C: -4.1 | D: 1 | E: -2 | F: 0.4%

> O=C(Nc1cccc(F)c1)C1CCN(S(=O)(=O)c2cnc[nH]2)CC1
  A: -14 | B: -0.3 | C: -5.3 | D: -3 | E: 0 | F: 0.9%

> CC1CCN(C(=S)NC2CCCCC2)CC1
  A: 7 | B: 1.1 | C: -1.7 | D: 15 | E: 0 | F: -0.8%

> CN(Cc1c(F)cccc1Cl)C(=O)C1=CC=CN2CCS(=O)(=O)N=C12
  A: 21 | B: -0.1 | C: 4.0 | D: 5 | E: 7 | F: -1.2%

> COc1ccc(OCC(=O)Nc2ccc(N3CCOCC3)cc2)cc1
  A: -13 | B: 0.3 | C: 2.9 | D: 4 | E: -5 | F: nt

> Cc1cc2n(n1)CCCN2C(=O)Nc1ccccc1C(F)(F)F
  A: 3 | B: -0.5 | C: nt | D: nt | E: nt | F: 1.1%

> CCN(CC)c1cccc(OC(=O)c2cccnc2Cl)c1
  A: 3 | B: -0.1 | C: 0.0 | D: -16 | E: -12 | F: 1.3%

> COc1ccccc1CNC(=O)c1c(O)nc2c(C)cccn2c1=O
  A: -16 | B: -0.6 | C: nt | D: nt | E: nt | F: 2.5%

More results:
canonical_smiles | TRPML1 blocker | TRPML1 ag | D2 ag | CtBP-E1A inh | Six1-Eya2 blk | PINK1 modulator
COc1ccc(-c2cc(C(F)(F)F)nc(SCC(=O)NCCCN3CCOCC3)n2)cc1 | -2 | 3.1 | -2.6 | -15 | -1 | -1.0%
CC1CCC(CC(=O)O)(C(=O)O)CC1 (stereo not given) | -3 | -0.3 | -0.9 | 5 | 5 | -1.6%
COC(=O)c1cc(NC(=O)c2cc(-c3ccccc3Cl)oc2C(F)(F)F)ccc1N1CCOCC1 | 26 | 2.8 | -0.6 | nt | 0 | -1.7%
CCN(C(=O)COC(=O)C1CCN(S(=O)(=O)c2ccc(C)c(C)c2)CC1)C1CCCCC1 | 12 | 3.3 | -0.3 | -6 | 3 | 2.3%
Cn1c(=O)c2ncn(C)c2n(C)c1=O | 34 | 0.3 | 4.4 | -10 | -2 | 1.7%
CCCCC(C(=O)NC(C)(C)C)N(Cc1ccco1)C(=O)c1snc(C(N)=O)c1N (stereo not given) | -13 | 1.4 | -1.1 | 0 | 0 | 0.4%
Cc1nc2sc(C(=O)O)c(N)c2c2c1COC(C)(C)C2 | 8 | 0.4 | 2.4 | 2 | -3 | 1.1%
CC1CCN(C(=O)c2ccc(NC3=C(Cl)C(=O)N(Cc4ccccc4)C3=O)cc2)CC1 | -6 | 0.9 | -4.5 | 10 | -4 | -2.3%
Cc1ccc(NC(=O)COC(=O)CCc2nc3ccccc3c(=O)[nH]2)c(Br)c1 | -3 | 0.0 | -2.6 | 0 | 30 | 1.2%
COc1ccccc1NC(=O)c1oc2ccccc2c1NC(=O)Cc1ccccc1 | 28 | -0.4 | nt | nt | nt | 4.9%
O=C(C[C@H]1C[C@H](C(=O)N2CCOCC2)[C@@]2(CCC3CCCC3)c3[nH]c4cc(-c5ccco5)ccc4c3CCN2C1=O)NCc1cccc(C(F)(F)F)c1 | 8 | -0.4 | -2.8 | -10 | -14 | 1.3%
CCc1ccc(NC(=O)N(C2CCC(C)CC2)C2CCN(C(C)=O)CC2)cc1 (stereo not given) | -2 | 0.3 | 2.3 | -2 | 0 | -7.0%[38.3 µM]
NCCn1c(-c2ccccc2)cc(C(=O)O)c1-c1ccccc1F | 0 | -0.4 | -1.6 | 1 | -7 | -0.1%
Fc1ccc(Nc2nc(-c3ccncc3)nc3ccccc23)cc1 | 6 | 2.5 | 2.8 | -4 | 3 | -0.7%
O=C(CSc1ccccc1)N1CCC(N2CCC(C(=O)N3CCCC3)CC2)CC1 | -2 | -0.6 | -0.1 | -3 | -2 | -0.1%
COC(=O)[C@H](C)NC(=O)Nc1ccc(OC(F)(F)F)cc1 | 15 | 0.5 | -0.7 | 1 | 3 | 2.2%
CCCCCCCC(=O)C(C)C(=O)N(C)[C@H](Cc1ccc(OC)cc1)C(=O)N(C)[C@H](C(N)=O)C(C)C (stereo not given in full) | 12 | -0.4 | -0.3 | -3 | 6 | -0.8%
CC(C)c1ccc(C(O)P(=O)(OC2CCCCC2)OC2CCCCC2)cc1 (stereo not given) | -21 | 12 | -2.0 | nt | 18 | -1.1%
CCCCN1CC(c2nc3ccccc3n2CCCCOc2ccc(C)c(C)c2)CC1=O (stereo not given) | 46 | 0.3 | nt | nt | nt | 17%
COc1cccc(CNC(=O)Cc2c(C(=O)O)c(C)cn2C)c1 | -13 | -0.4 | nt | nt | nt | -0.1%
O=C(CN1C(=O)CCC1=O)Nc1ccc(Cc2ccc(NC(=O)CN3C(=O)CCC3=O)cc2)cc1 | 18 | 0.3 | -2.2 | 1 | -1 | 0.4%
CCN(Cc1cnn(C)c1)C(=O)c1cc(COc2cc(C)c(Cl)c(C)c2)on1 | -6 | -0.5 | -3.2 | -1 | 1 | 2.8%
Cc1ccc(/C=C2/SC(=S)N(CC(=O)Nc3ncc(Cc4ccc(C)cc4)s3)C2=O)cc1 | -2 | 0.7 | -0.9 | -5 | 5 | 13%
O=C(Nc1nc(-c2ccccn2)cs1)c1ccco1 | 36 | 0.5 | -0.8 | -93* | -79* | 5.9%
CSc1nc(C)c(CCOC(=O)c2cccc(C)c2)c(=O)[nH]1 | 8 | 1.0 | 1.0 | -2 | -2 | -1.3%
CC1CCN(CC[C@H]2CCCN2S(=O)(=O)c2cccc(O)c2)CC1 | 4 | -0.7 | -5.4 | -2 | 13 | 1.4%
Cc1nc(Nc2ccccc2F)c2oc3ccccc3c2n1 | 16 | -0.9 | 0.1 | 4 | 2 | 3.6%
CCOc1ccc(NC(=O)c2ccc(CN3C(=O)C(C)=C(c4ccc(C)cc4)S3(=O)=O)cc2)cc1 | -4 | 0.3 | nt | nt | nt | 1.0%
Cc1cc(-n2c(C)cc(C(=O)COc3ccc([N+](=O)[O-])cc3)c2C)no1 | -2 | 0.8 | -3.3 | nt | -7 | 3.1%
O=C(c1ccc(Cl)cc1)c1cnc2ccccn12 | 18 | -1.2 | 0.2 | 5 | 4 | 0.3%
COc1ccc(CNC(=O)CN(C)S(=O)(=O)c2ccccc2)cc1 | -4 | -0.4 | 1.8 | 7 | 8 | -0.3%
CN(C)CCNC(=O)Nc1ccc(F)cc1F | 7 | 0.9 | -1.4 | -20 | 1 | -0.8%
CC(C)Oc1ccc(Oc2ccc(C(F)(F)F)cn2)cc1 | -12 | 4.1 | -0.6 | 22 | 26 | -2.9%
